Compound activity from PubChem BioAssay.
MITF inh: blocks MITF activity | TRPM1 promoter luciferase, luminescence, 24 h | inhibition, % (concentration not given with the values) | 0.28% of 37,000 active;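 active = most replicates at 85% or more, or half of them and the mean; inconclusive = half reach 85% but not the mean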;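 note: human melanocyte line stably carrying TRPM1 promoter luciferase reporter; 0% = vehicle wells and 100% = a positive control; the first replicate is given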
YB-1 expression: YB-1 expression inhibition; U2OS, qRT-PCR YB-1 vs CDIP delta delta Cp, 16 h; stronger effect = higher value; zero = DMSO, each unit about twofold; delta delta Cp (YB-1 minus CDIP) (test concentration not listed); 0.37% of 30,000 active; AID 434959;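 active = delta delta Cp rounded down to an integer at or above 3, about 3 SD of DMSO wells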;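 note: higher means less YB-1 transcript or more CDIP transcript relative to DMSO; stock transfer was 100 nL into about 100 µL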
PD-1 reverse act: reversal of PD-1 mediated T-cell inhibition; AID 2316; activation, % (no concentration beside the values); primary human CD4 T cells, PD-L1 beads, CellTiter-Glo 96 h; 29,000 tested, under 10 active;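 active = replicate mean of 50% or more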;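 note: 0% = median vehicle wells and 100% = positive control; 100 nL library stock added to about 50 µL; numbers are from one replicate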
Hedgehog inh: blocks Sonic Hedgehog signaling; Shh-LIGHT2 Gli-luciferase reporter, 30 h; 2.1% of 22,000 active; inhibition, % (no concentration beside the values);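 active = replicate mean of 65% or more; inconclusive = mean lower but half the replicates past it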;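 note: pathway switched on by Shh-conditioned medium diluted 1 in 25 in low serum; 100 nL library stock added to about 40 µL; 0% = median of neutral wells and 100% = positive control level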
Active calls of the source: *. The list is partial. The share of hits here may be higher or lower than overall.

What do the screens show for `Cc1ccc(S(=O)(=O)N(C)C[C@H]2Oc3c(NC(=O)c4nc5ccccc5s4)cccc3C(=O)N([C@@H](C)CO)C[C@H]2C)cc1`?
MITF inh: 8; YB-1 expression: -0.65; Hedgehog inh: -5

How did Cc1noc(C)c1NC(=O)N(C)C[C@@H]1Oc2ccc(NC(=O)C3CCCCC3)cc2C(=O)N([C@H](C)CO)C[C@H]1C do in these assays?
MITF inh: -4; YB-1 expression: 0.0086; PD-1 reverse act: 0.5; Hedgehog inh: 22

Results for C[C@@H]1CCCCO[C@@H](CN(C)S(=O)(=O)c2ccccc2)[C@@H](C)CN([C@H](C)CO)C(=O)c2cc(NS(=O)(=O)c3cn(C)cn3)ccc2O1 ?
MITF inh: 8; YB-1 expression: 0.13; Hedgehog inh: -5

What do the screens show for `O=S(=O)(CCSc1nc2ccccc2o1)c1nc2ccccc2s1`?
MITF inh: 28; PD-1 reverse act: -12

How did C[C@@H]1CN([C@H](C)CO)C(=O)c2cccc(NC(=O)Nc3ccccc3)c2O[C@H]1CN(C)Cc1ccc(-c2ccccc2)cc1 do in these assays?
MITF inh: 21; YB-1 expression: 0.25; PD-1 reverse act: -2.4; Hedgehog inh: -11

How did C[C@@H]1CN([C@@H](C)CO)C(=O)c2cccc(NS(=O)(=O)c3ccc(F)cc3)c2O[C@H]1CN(C)CC1CCCCC1 do in these assays?
MITF inh: 4; YB-1 expression: -0.51; PD-1 reverse act: 0.6; Hedgehog inh: 2

What do the screens show for `Cc1noc(C)c1NC(=O)N(C)C[C@H]1Oc2c(NC(=O)NC(C)C)cccc2C(=O)N([C@@H](C)CO)C[C@H]1C`?
MITF inh: -3; YB-1 expression: -0.42; Hedgehog inh: -29

Results for Cc1ccc(C(=O)O)cc1S(=O)(=O)N1CCC(C(=O)O)CC1 ?
MITF inh: -4; PD-1 reverse act: 4.0

Results for CC(C)(O)CCc1cc2c(cc1O)O[C@H]1c3ccc(O)cc3OC[C@@H]21 ?
YB-1 expression: 0.11; Hedgehog inh: -14

Results for C[C@@H]1CN([C@H](C)CO)C(=O)c2cc(NC(=O)NC3CCCCC3)ccc2O[C@H]1CN(C)Cc1ccc(C(F)(F)F)cc1 ?
MITF inh: -12; YB-1 expression: -0.47; PD-1 reverse act: -5.0

Structural class: the compounds so far containing two or more sulfur atoms
What do the screens show for `Cc1ccc(S(=O)(=O)N(C)C[C@H]2Oc3c(NC(=O)c4nc5ccccc5s4)cccc3C(=O)N([C@@H](C)CO)C[C@H]2C)cc1`?
MITF inh: 8; YB-1 expression: -0.65; Hedgehog inh: -5

Results for C[C@@H]1CCCCO[C@@H](CN(C)S(=O)(=O)c2ccccc2)[C@@H](C)CN([C@H](C)CO)C(=O)c2cc(NS(=O)(=O)c3cn(C)cn3)ccc2O1 ?
MITF inh: 8; YB-1 expression: 0.13; Hedgehog inh: -5

What do the screens show for `O=S(=O)(CCSc1nc2ccccc2o1)c1nc2ccccc2s1`?
MITF inh: 28; PD-1 reverse act: -12

(further entries)
How did CN(C)CCOC(=O)COc1ccc(Cl)cc1 do in these assays?
MITF inh: -3; YB-1 expression: -0.22; Hedgehog inh: -77

What do the screens show for `CCOC(=O)Cc1c(C)nc(Cc2ccc(OC(C)C)cc2)[nH]c1=O`?
MITF inh: 13; YB-1 expression: -1.4; PD-1 reverse act: -0.4; Hedgehog inh: -16

How did Cc1ccc([N+](=O)[O-])cc1N(CC(=O)Nc1ccccc1Cl)S(C)(=O)=O do in these assays?
MITF inh: -54; PD-1 reverse act: 1.9

Results for C[C@@H]1CN([C@H](C)CO)C(=O)c2cc(NC(=O)Cn3cnnn3)ccc2O[C@H]1CN(C)S(=O)(=O)c1cccs1 ?
MITF inh: 5; YB-1 expression: -0.36; PD-1 reverse act: 1.1; Hedgehog inh: 1

Results for C[C@H]1CN([C@@H](C)CO)C(=O)c2cc(NC(=O)Nc3cccc4ccccc34)ccc2O[C@@H]1CN(C)Cc1ccc2c(c1)OCO2 ?
MITF inh: -4; YB-1 expression: 0.34; PD-1 reverse act: -2.2; Hedgehog inh: 43

How did C[C@@H]1CCCCO[C@@H](CN(C)C(=O)Nc2ccccc2)[C@@H](C)CN([C@H](C)CO)C(=O)c2cc(NC(=O)Nc3cccc4ccccc34)ccc2O1 do in these assays?
MITF inh: -7; YB-1 expression: -0.17; PD-1 reverse act: -1.4; Hedgehog inh: -14

Results for CC(C)NC(=O)N(C)C[C@@H]1OCCCC[C@@H](C)Oc2ccc(NC(=O)c3ccncc3)cc2C(=O)N([C@H](C)CO)C[C@@H]1C ?
MITF inh: -22; YB-1 expression: 0.48; Hedgehog inh: -20

Results for COc1cccc(NC(=O)C(C)N(c2ccc(Cl)cc2)S(C)(=O)=O)c1 (stereo unspecified) ?
MITF inh: 16; PD-1 reverse act: -0.1

Results for Cc1cc(C)cc(OCC(=O)Nc2cc(-c3nc4ccccc4s3)ccc2C)c1 ?
MITF inh: -39; PD-1 reverse act: -1.3

Results for COc1ccc(OC)c(N(CC(=O)Nc2cccc(C(F)(F)F)c2)S(C)(=O)=O)c1 ?
MITF inh: -17; PD-1 reverse act: 2.2

Compounds above that have a CF3 group, in the order listed:
Results for C[C@@H]1CN([C@H](C)CO)C(=O)c2cc(NC(=O)NC3CCCCC3)ccc2O[C@H]1CN(C)Cc1ccc(C(F)(F)F)cc1 ?
MITF inh: -12; YB-1 expression: -0.47; PD-1 reverse act: -5.0

Results for COc1ccc(OC)c(N(CC(=O)Nc2cccc(C(F)(F)F)c2)S(C)(=O)=O)c1 ?
MITF inh: -17; PD-1 reverse act: 2.2

(next part)
Results for Cc1noc(C)c1NC(=O)Nc1ccc2c(c1)C(=O)N([C@H](C)CO)C[C@@H](C)[C@@H](CN(C)C(=O)Nc1ccccc1)O2 ?
MITF inh: -12; YB-1 expression: -0.1; PD-1 reverse act: 1.2; Hedgehog inh: -11

How did COc1cc2c3cc1Oc1c(OC)c(OC)cc4c1[C@@H](Cc1ccc(OC(=O)c5ccc([N+](=O)[O-])cc5)c(c1)Oc1ccc(cc1)C[C@@H]3N(C)CC2)N(C)CC4 do in these assays?
MITF inh: -2; YB-1 expression: -0.28; PD-1 reverse act: -0.9; Hedgehog inh: -27

Results for C[C@H]1CN([C@@H](C)CO)C(=O)Cc2cc(NC(=O)C3CC3)ccc2O[C@@H]1CN(C)Cc1ccc(C(=O)Nc2ccccc2N)cc1 ?
MITF inh: -2; YB-1 expression: 0.19; PD-1 reverse act: -0.4

How did Cc1c(Cl)c(C(F)(F)F)nn1CC(=O)Nc1ccc(C#N)cc1 do in these assays?
MITF inh: 27; PD-1 reverse act: -0.8

How did COC(=O)[C@@H](NC(=O)c1cc(C)on1)C(C)C do in these assays?
MITF inh: -74; YB-1 expression: -0.24; PD-1 reverse act: -0.1; Hedgehog inh: -49

What do the screens show for `Cc1cc(C(=O)NCCCN2CCCC2=O)no1`?
MITF inh: -1; PD-1 reverse act: 2.6

Results for Cc1ccc(S(=O)(=O)N2C(=O)CCC2C(=O)Nc2cc(C(F)(F)F)ccc2Cl)cc1 (stereo unspecified) ?
MITF inh: -11; PD-1 reverse act: 0.5

What do the screens show for `C[C@H]1CN([C@@H](C)CO)C(=O)Cc2cc(NC(=O)Nc3ccc(F)cc3)ccc2O[C@H]1CN(C)C(=O)Nc1ccccc1`?
MITF inh: -8; YB-1 expression: -1.2; PD-1 reverse act: -2.0; Hedgehog inh: -16

What do the screens show for `CC(=O)c1c(C)nn(CC(O)COc2ccc3ccccc3c2)c1C` (stereo unspecified)?
MITF inh: 17; PD-1 reverse act: -0.6

What do the screens show for `C[C@@H]1CN([C@@H](C)CO)C(=O)Cc2cc(NC(=O)Nc3ccccc3)ccc2O[C@@H]1CN(C)Cc1ccc(Oc2ccccc2)cc1`?
MITF inh: 45; YB-1 expression: 0.02; PD-1 reverse act: -6.8; Hedgehog inh: 52

Results for C[C@@H]1CN([C@@H](C)CO)C(=O)c2cccc(N(C)C)c2O[C@@H]1CN(C)Cc1ccc(C(F)(F)F)cc1 ?
MITF inh: 6; YB-1 expression: 0.32; PD-1 reverse act: -1.5; Hedgehog inh: -1

Results for COc1ccc(S(=O)(=O)N(C)C[C@H]2Oc3c(NC(=O)CCCCCC(=O)Nc4ccccc4N)cccc3C(=O)N([C@H](C)CO)C[C@@H]2C)cc1 ?
MITF inh: -11; YB-1 expression: -0.58; PD-1 reverse act: -2.1

Results for C[C@H]1CN([C@@H](C)CO)C(=O)Cc2cc(NC(=O)Nc3cccc4ccccc34)ccc2O[C@H]1CN(C)Cc1ccccc1 ?
MITF inh: -3; YB-1 expression: -0.11; Hedgehog inh: inconclusive

What do the screens show for `Cc1cccc(C)c1-n1c(C2CC3CCC2O3)n[nH]c1=S` (stereo unspecified)?
MITF inh: 2; YB-1 expression: -0.19; PD-1 reverse act: 2.6; Hedgehog inh: -34

How did Cc1ccc(S(=O)(=O)Nc2ccc3c(c2)CC(=O)N([C@H](C)CO)C[C@H](C)[C@H](CN(C)S(=O)(=O)c2cccs2)O3)cc1 do in these assays?
MITF inh: -3; YB-1 expression: 0.72; PD-1 reverse act: 1.6; Hedgehog inh: 14

Results for O=S(=O)(NC(c1ccccc1)c1ccccc1)c1ccccc1 ?
MITF inh: -2; YB-1 expression: -0.031; PD-1 reverse act: -0.1; Hedgehog inh: -11

What do the screens show for `Nc1ccc2oc(-c3ccccc3)nc2c1`?
MITF inh: 13; YB-1 expression: -0.38; PD-1 reverse act: -0.6; Hedgehog inh: -76

How did COc1ccc(NC(=O)Nc2cccc3c2O[C@H](CN(C)CC2CC2)[C@@H](C)CN([C@H](C)CO)C3=O)cc1 do in these assays?
MITF inh: -21; YB-1 expression: -0.2; PD-1 reverse act: 0.6; Hedgehog inh: -2

What do the screens show for `COc1ccc(S(=O)(=O)Nc2cccc3c2O[C@@H](CN(C)Cc2ccncc2)[C@@H](C)CN([C@H](C)CO)C3=O)cc1`?
MITF inh: 4; YB-1 expression: -0.41; PD-1 reverse act: -1.4; Hedgehog inh: 26

How did O=C(c1ccccc1)c1ccccc1C(=O)c1ccccc1 do in these assays?
MITF inh: 1; YB-1 expression: 0.12; PD-1 reverse act: -2.3; Hedgehog inh: 23

How did Cc1ccc(Nc2nc(C)cc(C)c2C(N)=O)cc1 do in these assays?
MITF inh: 18; YB-1 expression: 0.25; PD-1 reverse act: 0.6; Hedgehog inh: -37

Results for CCN1C(=O)/C(=C2\SC(=S)N(c3cccc(Cl)c3)C2=O)c2ccccc21 ?
MITF inh: 6; YB-1 expression: 0.26; PD-1 reverse act: -1.4; Hedgehog inh: 14

What do the screens show for `COc1cc2c(cc1OC)[C@@H]1C(=O)c3ccc4c(c3O[C@@H]1CO2)CCC(C)(C)O4`?
MITF inh: inconclusive; YB-1 expression: 0.21; Hedgehog inh: 94*

What do the screens show for `Cc1cc(C)c2c(CC(=O)NCc3ccco3)coc2c1`?
MITF inh: 6; PD-1 reverse act: 0.3

Results for CC(=O)N(Nc1ccccc1)c1ccccc1 ?
MITF inh: 8; YB-1 expression: -0.37; PD-1 reverse act: -0.6

What do the screens show for `CCOc1ccccc1NC(=O)CN1C(=O)c2ccc([N+](=O)[O-])cc2C1=O`?
MITF inh: -2; PD-1 reverse act: 2.6

How did Cc1ccc(CC(CC(=O)O)C(=O)Nc2ccccc2I)cc1 (stereo unspecified) do in these assays?
MITF inh: -18; PD-1 reverse act: 1.2

What do the screens show for `COc1cc(=O)oc(C(C)C(C)O)c1CO` (stereo unspecified)?
MITF inh: 4; YB-1 expression: 0.91; PD-1 reverse act: -0.1; Hedgehog inh: 11

What do the screens show for `C[C@@H]1CN([C@H](C)CO)C(=O)c2cc(NS(C)(=O)=O)ccc2O[C@H]1CN(C)Cc1ccc(Oc2ccccc2)cc1`?
MITF inh: -3; YB-1 expression: -0.25; PD-1 reverse act: -1.2

How did C[C@H]1CN([C@@H](C)CO)C(=O)c2cccc(NC(=O)Nc3ccc(F)cc3)c2O[C@@H]1CN(C)Cc1ccccc1 do in these assays?
MITF inh: -11; YB-1 expression: 0.29; Hedgehog inh: 53

Results for Cc1ccc(S(=O)(=O)N(C)C[C@H]2Oc3ccc(NC(=O)CCCN(C)C)cc3C(=O)N([C@H](C)CO)C[C@@H]2C)cc1 ?
MITF inh: -4; YB-1 expression: -0.12; Hedgehog inh: -12

How did CO/N=C1\CN(c2nc3c(cc2F)c(=O)c(C(=O)O)cn3C2CC2)CC1CN (stereo unspecified) do in these assays?
MITF inh: -19; YB-1 expression: 0.071; Hedgehog inh: 25

Results for CC(C)(C)C(=O)CSc1nc2ccccc2c(=O)n1CC1CC1 ?
MITF inh: -1; YB-1 expression: -0.32; PD-1 reverse act: 0.1

Results for C[C@@H]1CN([C@H](C)CO)C(=O)Cc2cc(NC(=O)CCN3CCOCC3)ccc2O[C@H]1CN(C)Cc1ccc2c(c1)OCO2 ?
MITF inh: 4; YB-1 expression: 0.31; Hedgehog inh: -19

What do the screens show for `COC(=O)c1c[nH]c(=S)n1C`?
MITF inh: 2; YB-1 expression: -0.33; PD-1 reverse act: 0.1; Hedgehog inh: -16

What do the screens show for `COC(=O)c1cc(OC)c(OC)cc1NC(=O)COc1ccc(OC)cc1`?
MITF inh: -9; PD-1 reverse act: -2.1

How did COC(=O)c1ccccc1NC(=O)Cc1coc2cc(C)cc(C)c12 do in these assays?
MITF inh: -8; PD-1 reverse act: 1.1
